Screens (PubChem)
Lassa entry inh: qHTS for Inhibitors of binding or entry into cells for Lassa Virus; Potency, µM (series often up to 37.9 µM), without a hit: at the top dose activity change, negative = inhibition, actives largely listed as inhibitors; AID 540256, 2011; Lassa virus pseudotype entry inhibition, cell reporter; control for the full effect not named in the record; 1.2% of 300,000 active; active means well fitted inhibition curve with a large enough effect; inconclusive means small, poorly fitted or top-dose-only effect, or effect the other way; inactive means flat fitted curve, though single readings scatter; tested in HEK293 cells; further: on the % scale 0 is the no-effect control and ±100 the full control effect; nearly all actives have a fitted effect of over 50% in size; luciferase read-out
SARS PLP yeast: qHTS of Yeast-based Assay for SARS-CoV PLP | S. cerevisiae expressing SARS-CoV PLpro, growth rescue; control for the full effect not named in the record | Potency, µM (series often up to 32.9 µM), without a hit: at the top dose activity, positive = growth rescue | 0.19% of 330,000 active | AID 485353, 2010; further: 0% is about no effect; nearly all actives have a fitted effect of over 55% in size; growth read by luminescence after 48 h
StopGo reporter: High Throughput Screening for Foot and Mouth Disease Virus Antivirals; human cells with a luciferase reporter of 2A StopGo recoding; control for the full effect not named in the record; 1.2% of 410,000 active; Potency, µM (doses to about 57.9 µM), for inactives: at the highest dose signal change, negative = less light; active = well fitted falling curve with a large enough effect; inconclusive = small, poorly fitted or top-dose-only effect; inactive = no such curve, though single readings can be large or run the other way; tested in HEK293T cells; further: on the % scale 0 is the no-effect control and ±100 the full control effect; nearly all actives have a fitted effect of over 45% in size; luciferase light after 4 h
Cruzain Triton: qHTS Assay for Promiscuous and Specific Inhibitors of Cruzain (with detergent) | AID 1478, 2009 | Cruzipain (Trypanosoma cruzi), P25779 | Potency, µM, for the others: max response, negative = inhibition, usual class: inhibitors | 0.43% of 200,000 active | purified cruzain, Z-FR-AMC fluorescence, 0.01% Triton; active means well fitted curve in the direction sought with a large enough effect; inconclusive means small, poorly fitted or top-dose-only effect, or another doubt; inactive means no such curve, though single readings can be large; an effect the other way counts as inactive or inconclusive;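 further: plate controls were neutral wells for no effect and buffer without enzyme for full effect; nearly all actives have a fitted effect of over 40% in size; top concentration of the series not given in the record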
Target sequence (P25779 123-467 limits assumed): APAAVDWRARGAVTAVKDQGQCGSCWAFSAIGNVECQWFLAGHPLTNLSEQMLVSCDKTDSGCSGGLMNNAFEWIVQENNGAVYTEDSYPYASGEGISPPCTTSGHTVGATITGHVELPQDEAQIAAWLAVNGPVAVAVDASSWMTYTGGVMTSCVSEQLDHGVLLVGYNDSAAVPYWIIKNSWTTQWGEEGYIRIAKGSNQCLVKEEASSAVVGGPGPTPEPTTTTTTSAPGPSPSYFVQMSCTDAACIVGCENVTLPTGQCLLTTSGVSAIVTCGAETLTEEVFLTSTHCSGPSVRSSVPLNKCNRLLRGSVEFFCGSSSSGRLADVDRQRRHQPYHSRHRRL
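Enzyme 1.5 nM, Z-FR-AMC 2 uM, NaOAc 100 mM pH 5.5, DTT 5 mM, Triton X-100 0.01%; 15 min RT compound preincubation; kinetic ex360/em450, 60 s delta.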
RE007 growth inh: qHTS Assay for Inhibitors of the HIV-1 protein Vpr | AID 651644, 2012 | S. pombe RE007 Vpr strain, BacTiter-Glo ATP luminescence, 24 h; control for the full effect not named in the record | Potency, µM (top dose mostly 92.2 µM), without a hit: at the top dose activity change, negative = less growth | 0.21% of 360,000 active; active = well fitted falling curve with a large enough effect; inconclusive = small, poorly fitted or top-dose-only effect; inactive = no such curve, though single readings can be large or run the other way;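 further: on the % scale 0 is the no-effect control and ±100 the full control effect; nearly all actives have a fitted effect of over 50% in size; the assay follows cell death caused by Vpr and the record does not say whether a fall means rescue or toxicity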
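Fission yeast RE007 carrying one integrated HIV-1 vpr copy, seeded at OD 0.01 in PMG+AL medium with 23 nL pinned compound. Grown 24 h at 30 degrees; viability read by BacTiter-Glo luminescence after 5 min.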
NS1 inh: qHTS Assay for Inhibitors of Influenza NS1 Protein Function | Potency, µM (titrated, usually from 46.1 µM), inactives show at the highest dose activity, positive = more growth | S. cerevisiae slowed by influenza A NS1, growth recovery by OD600 | 0.4% of 270,000 active; further: actives are rising curves; nearly all actives have a fitted effect of over 50% in size
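Growth recovery, yeast-based: influenza A NS1 expressed in S. cerevisiae causes slow growth, and suppressors are detected by OD600. The parent strain without NS1 is used as positive control.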
Cruzain inh noDet: qHTS Assay for Promiscuous and Specific Inhibitors of Cruzain (without detergent). Cruzipain (Trypanosoma cruzi), P25779. purified cruzain, Z-FR-AMC fluorescence, no detergent. Potency, µM, without a hit: max response, negative = inhibition, actives largely listed as inhibitors. 2.3% of 200,000 active. AID 1476, 2009; active means well fitted curve in the direction sought with a large enough effect; inconclusive means small, poorly fitted or top-dose-only effect, or another doubt; inactive means no such curve, though single readings can be large; an effect the other way counts as inactive or inconclusive;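 further: plate controls were enzyme without inhibitor for no effect and buffer without enzyme for full effect; nearly all actives have a fitted effect of over 40% in size; top concentration of the series not given in the record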
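Detergent-free condition (0.00005% Triton X-100) in acetate buffer pH 5.5 with DTT. 1.5 nM enzyme and compound were pre-mixed 15 min, then 2 uM Z-FR-AMC substrate added; reaction progress from fluorescence change between first and third reads (60 s).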
MARV entry inh: qHTS for inhibitors of binding or entry into cells for Marburg Virus; Marburg virus pseudotyped entry inhibition, cell reporter; control for the full effect not named in the record; about a third of the inactives were read at about 46 µM; Potency, µM (highest dose often 37.8 µM), without a hit: top-dose activity change, negative = inhibition, hits mostly inhibitors; 1.8% of 300,000 active; AID 540276, 2011; active = well fitted inhibition curve with a large enough effect; inconclusive = small, poorly fitted or top-dose-only effect, or effect the other way; inactive = flat fitted curve, though single readings scatter; tested in HEK293 cells; about a fifth of its hits are not listed in these tables; further: on the % scale 0 is the no-effect control and ±100 the full control effect; luciferase read-out
Numbers without * were called inactive; ? = inconclusive; . = no result given; & = joins results of further samples; [ ] = another dose, or the depositor's remark. Unless noted, the call rests on the fitted dose curve; in most records, active means well fitted rising curve with a large enough effect; inconclusive means small, poorly fitted or top-dose-only effect; inactive means no such curve, though single readings can be large or run the other way. Potency means the concentration at half of the fitted maximal effect.

SMILES | Lassa entry inh | SARS PLP yeast | StopGo reporter | Cruzain Triton | RE007 growth inh | NS1 inh | Cruzain inh noDet | MARV entry inh
CCn1c(SCC(=O)N/N=C(/C)c2ccncc2)nc2ccccc21 | 3%[46.1 µM] | 0% | -21% | . | 18% | -3% | . | ?
COc1ccccc1N=C(C)C1=C(O)COC1=O | 11% | 5% | . | 3.2% | 15% | -7% | 7% | 20%
CCOc1ccccc1/C=N/n1nnnc1N | 4%[46.1 µM] | -8% | 1% | . | 3% | -20% | . | -4%[46.1 µM]
CCCC/C(C)=C/[C@@H](NP(=O)(c1ccccc1)c1ccccc1)c1ccccc1 | ? | -64% | -11% | -12%&-10% | 14% | -87% | -28%&-3% | ?
O=S(=O)(CCN1CCN(c2ccccc2O)CC1)c1cc(Cl)ccc1Cl | 4% | 2% | -22% | . | -2% | . | . | -5%
O=C(N=C1SC2CS(=O)(=O)CC2N1c1ccc(F)cc1)C1CC1 (stereo not given) | . | 9% | -9% | . | 6% | 17% | . | .
Cc1ccc(C)c(Cn2c(C)nc3c(sc(=S)n3-c3ccccc3)c2=O)c1 | . | -1% | -5% | . | 4% | . | . | -5%[46.1 µM]
O=C(CCNC(=O)c1ccccc1Cl)NN=Cc1ccccc1[N+](=O)[O-] | ? | 1% | -27% | . | 1% | . | . | 26%
COc1ccc(N(C)C(=O)c2cc3c(s2)-c2ccccc2OC3)cc1 | . | . | -9% | -10% | . | . | -14% | ?
COc1cccc(NS(=O)(=O)c2ccc3[nH]cc(C(=O)NCCc4ccccc4)c(=O)c3c2)c1 | 2%[46.1 µM] | . | -6% | -2.5% | . | . | 13µM* | -1%[46.1 µM]
COc1ccc(/C=C/c2onc(C)c2S(=O)(=O)N2CCC(C(=O)N3CCC(C)CC3)CC2)cc1 | ? | -5% | -16%&-27% | -0.3% | -5% | 5% | 7% | ?
CNc1nc(CC(C)=O)ns1 | 8% | 2% | -6% | 0.6% | -21% | 3% | -2% | -1%
COc1cccc(N2CCN(C(=O)Cn3ncc4c3-c3ccccc3OC4)CC2)c1 | . | . | -30% | -1.5% | . | . | ? | ?
CC(C)C(CCN1C(=O)c2ccccc2C1=O)c1ccco1 (stereo not given) | 16% | -5% | -9% | -13% | 1%[3.69 µM] | -7% | -5% | 3%
O=[N+]([O-])c1ccccc1S(=O)(=O)N1CCN(CC2CC=CCC2)CC1 (stereo not given) | ? | -1% | -14% | . | 11% | -6% | . | ?
CCOC(=O)N1CCN(Cc2nc3c(c(=O)n(C)c(=O)n3C)n2Cc2ccccc2)CC1 | . | 1% | 0% | 0.3% | 0% | -37% | ? | .
COC(=O)c1cccc(NC(=O)Cc2coc3cc(OC)ccc23)c1 | -68% | 6% | . | -7.5% | 14% | 5% | -5% | ?
CCOC(=O)Cn1cnc2c(nnn2-c2ccc(F)cc2)c1=O | . | 3% | 6% | . | 22% | -7% | . | .
COc1ccccc1NCC(O)Cn1c2ccccc2c2ccccc21 (stereo not given) | ? | -11% | ? | -6.9% | ? | -80% | 4% | -78%
CS(=O)(=O)c1ccc2nc(NC(=O)CCN3C(=O)c4ccccc4C3=O)sc2c1 | 1% | -5% | -15% | . | -11% | . | . | ?
NC(=O)Nc1ccc(C(=O)OCC(=O)Nc2sccc2C(N)=O)cc1 | 19%[46.1 µM] | 0% | 28% | . | 5% | . | . | 16%
COc1cc(C(=O)NCCC(=O)NC2CCCc3ccccc32)cc(OC)c1OC (stereo not given) | 1%[46.1 µM] | -1% | -5% | . | -19% | -13% | . | ?
CC(C)CN1C(=O)C(=O)N(CC(=O)N2CCN(c3ccccc3)CC2)C1=O | 4% | 2% | -13% | . | -5% | . | . | ?
O=C(Nc1ccncc1)c1cc(S(=O)(=O)N2CCCCC2)ccc1Cl | ? | -5% | -13% | . | 20% | . | . | ?
O=C(NCCCN1CCCC1=O)c1ccc(OCc2ccccc2)cc1 | 9% | 4% | 11% | 4.9% | -5% | 1% | 0% | ?
C=CCOc1ccc(/C=C/C(=O)OCC(=O)NC2CCCCCC2)cc1 | . | 16% | 0% | . | -3% | -4% | . | .
CC1CCCCN1C(=S)NC(=O)c1ccco1 (stereo not given) | -1% | 11% | 1% | . | 8% | . | . | 9%
CC(C)C1=Nc2cccc3cccc(c23)N1 | 9% | -11% | -21% | 0.6% | 8% | -29% | -10% | ?
CCNc1ccc(Br)cc(C(=O)/C=C/c2ccc3c(c2)OCO3)c1=O | -26% | -8% | ? | -12% | -18% | 14% | -10% | -2%
Cc1ccc(C(=O)Nc2nnc(C3CCCCC3)s2)o1 | ? | -11% | 16% | -1.7% | -16% | -90% | 5% | ?
Cc1cccc2cc(CN(CCN(C)C)C(=S)Nc3ccccc3)c(=O)[nH]c12 | 8% | -4% | ? | -2.0% | -9% | ? | 8% | ?
Cc1ccc(C)c(-n2c3nc(=O)[nH]c(=O)c-3cc3c(C)nn(-c4ccccc4)c32)c1 | 11%[46.1 µM] | . | -8% | -2.2% | . | . | 6% | 3%[46.1 µM]
CCC(=O)N1CCc2cc(S(=O)(=O)NCCC(=O)N3CCN(c4ccccn4)CC3)ccc21 | 0% | -1% | -14% | 5.4% | -6% | -8% | -5% | -3%
CC(C)(C)NC(=O)C(c1ccccn1)N(C(=O)c1ccc2c(c1)OCCO2)C1CCCC1 (stereo not given) | -20% | -1% | -26% | 3.3% | -6% | -13% | -5% | ?
N=C1C(=O)NC(=O)C1c1ccccc1 (stereo not given) | -5% | . | -11% | . | -7% | . | . | ?
CCOC(=O)c1[nH]c2ccc(OC)cc2c1NC(=S)N1CCN(c2cccc(C)c2C)CC1 | ? | 2% | 0% | -6.9% | 22% | -11% | -1% | 2.2µM*
Cc1ccc(N2C(=O)CCSC23C(=O)N(Cc2ccc(F)cc2)c2ccccc23)cc1 (stereo not given) | -15%[46.1 µM] | . | ? | -1.9% | . | . | -18% | .
O=C(CSc1nc2ccccc2n1S(=O)(=O)c1cccc([N+](=O)[O-])c1)NCc1cccs1 | -2% | -12% | 35%[activator] | -10% | 18% | 8% | -7% | ?
O=C(NCCSCc1c(F)cccc1Cl)c1ccc(CN2CCOCC2)cc1 | -14% | 29% | ? | -3.4% | -13% | 13% | -6% | 17%
O=C(Nc1ccccc1-c1ccccc1)C1CCC1 | 8% | 0% | -4% | . | 12% | -1% | . | -4%[46.1 µM]
O=C(Nc1cc(C(F)(F)F)cc(C(F)(F)F)c1)c1ccc(Cn2cc(C(F)(F)F)ccc2=O)cc1 | -32% | 2% | 0% | -3.5% | 21% | 15% | -14% | ?
Cn1c(CNC(=O)CSc2nc(-c3cccc(Cl)c3)nc3cc(=O)[nH]n23)nc2ccccc21 | ? | . | -12% | 8.4% | . | . | 6% | .
CCCn1c(-c2cc(OC)c(OC)c(OC)c2)nc2c1c(=O)[nH]c(=O)n2Cc1ccccc1 | . | 1% | -11% | . | 13% | 12% | . | .
CN(C)C=Nc1c(Br)cc(Br)c2nonc12 | 9% | -1% | -8% | -3.1% | -2% | -4% | 5% | 2%&2%[46.1 µM]
COc1ccc(/C=N/NC(=O)CNS(=O)(=O)c2ccccc2)cc1 | 9% | -1% | 10% | . | 0% | . | . | 29%
CC(=O)/C(=C/Nc1ccc(Oc2ccccc2)cc1)c1ccccc1 | ? | -6% | -1% | -4.0% | -10% | -18% | -20% | 3%
CCn1nc(C)c(/C=N/NC(=O)c2nc3nc(C)cc(C)n3n2)c1C | . | 0% | -17% | . | -2% | 5% | . | .
Cc1cccc(-n2ncc3c2CCCC3NC(=O)CCN2CCCO2)c1C (stereo not given) | ? | ? | 0% | . | 4% | -10% | . | ?

Ordered by molecular weight (lowest first): three of the compounds above.
SMILES | Lassa entry inh | SARS PLP yeast | StopGo reporter | Cruzain Triton | RE007 growth inh | NS1 inh | Cruzain inh noDet | MARV entry inh
O=C(Nc1ccccc1-c1ccccc1)C1CCC1 | 8% | 0% | -4% | . | 12% | -1% | . | -4%[46.1 µM]
O=C(CCNC(=O)c1ccccc1Cl)NN=Cc1ccccc1[N+](=O)[O-] | ? | 1% | -27% | . | 1% | . | . | 26%
CC(C)(C)NC(=O)C(c1ccccn1)N(C(=O)c1ccc2c(c1)OCCO2)C1CCCC1 (stereo not given) | -20% | -1% | -26% | 3.3% | -6% | -13% | -5% | ?

Next section.
SMILES | Lassa entry inh | SARS PLP yeast | StopGo reporter | Cruzain Triton | RE007 growth inh | NS1 inh | Cruzain inh noDet | MARV entry inh
O=C1/C(=C/c2ccccc2)SC(=S)N1CCCC(=O)N1CCCCC1CCO (stereo not given) | . | 0% | ? | . | 4% | -17% | . | .
Cc1cc(C(=O)CSc2nn3c(=O)c(C(C)(C)C)nnc3s2)c(C)n1C | 29%[46.1 µM] | -1% | 2% | . | -1% | . | . | 17%[46.1 µM]
COc1ccccc1NC(=O)CSc1n[nH]c(-c2ccco2)n1 | 1% | . | -1% | . | 7% | . | . | 11%[46.1 µM]
C/C(=N\O)C(C)(C)Nc1ccc(Br)cc1 | -17% | -12% | -18% | . | -12% | -1% | . | -2%[46.1 µM]
O=C(N[C@@H](Cc1ccc(O)cc1)C(=O)O)c1cccnc1 | . | 0% | -10% | . | 1% | 0% | . | .
O=C(Nc1ccc2c(c1)OCO2)c1noc2c1CCCC2 | ? | 1% | -11% | . | 5µM* | -14% | . | 7.1µM*
CN(C(=O)CC1C(=O)NCCN1Cc1ccc2ccccc2c1)C1CCOCC1 (stereo not given) | 2% | 0% | -10% | . | 9% | -1% | . | 19%
CCCn1c(=O)c2sccc2n2c(CCCC(=O)NCC3CCCO3)nnc12 (stereo not given) | 1%[46.1 µM] | 0% | -4% | . | -3% | -2% | . | 27%[46.1 µM]
Cc1ccc(S(=O)(=O)Nc2cccc3cccnc23)c([N+](=O)[O-])c1 | 10µM* | -8% | ? | . | 1% | -19% | . | ?
